MgrA DNA FP = alters Staphylococcus aureus MgrA binding to DNA; inhibition, %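 (about 10 µg/mL by stock and volumes)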; AID 602314; fluorescence polarization; 84,000 compounds, 0.13% hits;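 active means above 50% in either of two replicates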;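 further: 0% = protein plus DNA without compound and 100% = DNA alone without protein; higher means less MgrA bound to DNA so lower polarization; one replicate is shown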
Sa helicase inh = S. aureus DNA helicase inhibition; purified S. aureus helicase, fluorescence unwinding assay; about half of the hits fall short of the stated cut; inhibition, %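 (tested at about 80 µM)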; 120,000 compounds, 0.05% hits;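 active means both duplicates at 50% or more, or one of them with a favoured structure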;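 further: 0% = mean of negative control wells and 100% = mean of positive control wells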
Numbers without * were called inactive; . = not tested or not shown; & = joins results of further samples. An excerpt. The share of hits here may be higher or lower than overall.

Sa helicase inh | MgrA DNA FP | structure
-18 | 4.8 | COc1ccccc1/C=C/C=N/n1c(-c2ccncc2)n[nH]c1=S
1 | 2.8 | Nc1ccc(CCC(=O)O)cc1
-15 | . | COc1ccc(O)c(C(=O)c2cnc3c(c2)c(=O)[nH]c(=O)n3C)c1
6 | 1.9 | CCn1nc(NC(=O)c2ccco2)c2cc3ccc(C)cc3nc21
6 | 0.7 | CCc1c(C)sc(NC(=O)c2ccco2)c1C(=O)NCc1ccccc1
-8 | 0.2 | O=C(O)CCCN1C(=O)CSC1=S
. | -0.4 | FC(F)(F)c1ccc(-c2nnc(-c3cccs3)o2)cc1
11 | 1.2 | CCn1cc(C(=O)NCCc2ccccc2)c(=O)c2cc(S(=O)(=O)N(C)C)ccc21
8 | -1.9 | N=C1/C(=C/c2ccco2)C(=O)N=C2SC(C3CCCCC3)=NN12
. | 0.8 | CC(C)N(C(=O)c1cc(C(=O)c2ccccc2)c[nH]1)C(C)C
21 | . | C/C(=N\N1C(C)CCCC1C)c1ccco1 (stereo unspecified)
-5 | . | Cc1sc(NC(=O)c2ccco2)c(CN2CCCCC2)c1C
10 | . | Cc1cc(C)nc(NC(N)=O)n1
26 | . | CCCCC(=O)Nc1nc2ccccc2s1
6 | -1.3 | CCN(C(=O)c1cccc(C(=O)N(CC)c2ccccc2)c1)c1ccccc1
. | 14 | N#Cc1c(-c2cccs2)nc(SCC(=O)c2ccc(Br)cc2)[nH]c1=O
-10 | 0.2 | Cc1cc(S(=O)(=O)N2CCCC2)c(C)s1
-14 | . | CCCCn1c(CNC(C)=O)nc2ccccc21
. | 0.2 | Cc1ccc(Oc2ncccc2[N+](=O)[O-])c([N+](=O)[O-])n1
-16 | . | COc1ccc2c(C)c(CC(=O)N3CCCC3)c(=O)oc2c1OC
8 | . | Cn1c(=O)cc2c3c(cccc31)C(=O)c1ccccc1-2
7 | . | CN(Cc1ccccc1)C(=O)CN1CCN(S(=O)(=O)c2ccccc2F)CC1
. | 3.3 | CCOC(=O)C1=C(C)N=c2s/c(=C\c3ccc(OC(C)=O)cc3OC(C)=O)c(=O)n2C1c1cccs1 (stereo unspecified)
11 | 5.3 | Cc1ccc(-c2nc(CSCC(=O)N3CCCC3)c(C)o2)cc1
-6 | 0.1 | O=C(NC1CCCC1)C1CCN(c2nc3ccccc3n3cccc23)CC1
-3 | 0.4 | CCn1c(CNc2cccc(Cl)c2)nnc1SCc1ccccc1
. | -0.8 | Cc1cc(C)c2cc(C(=O)NCc3ccccc3)[nH]c2c1
. | -1.6 | Cc1nc(-c2ccc(/C(N)=N/O)cc2)cs1
. | -1.0 | Clc1ccc(-c2csc(-c3ccncc3)n2)cc1
2 | -0.8 | CCOC(=O)c1c(NC(=O)Nc2ccc(Cl)c(Cl)c2)sc(C)c1C
. | -0.1 | Cc1[nH]c2ccccc2c1CC#N
0 | 0.0 | c1ccc(Cc2nc3c4cnn(Cc5ccccc5)c4ncn3n2)cc1
8 | . | CCC1(C(=O)c2ccccc2)C(c2ccc(OC)c(OC)c2)C1(C(=O)OC)C(=O)OC (stereo unspecified)
-7 | . | Cc1cc(=O)[nH]c(-n2ncc(C#N)c2N)n1
. | -1.1 | C#CC(C)(C)NC(=O)Nc1ccccc1
. | -0.1 | CCOC(=O)c1cc2nc3sccn3c2s1
4 | 2.8 | O=C1CSC(=S)N1C1CCS(=O)(=O)C1 (stereo unspecified)
. | 2.3 | COc1ccc(C2CC(c3c(-c4ccccc4)c4cc(Cl)ccc4[nH]c3=O)=NN2C(=O)CCCC(=O)O)cc1OC (stereo unspecified)
8 | -6.2 | COc1cc(CNC(C)(C)C)cc(Cl)c1OCc1cccnc1
-17 | . | CC(C(=O)Nc1ncccn1)(C(F)(F)F)C(F)(F)F
10 | -0.4 | CCCOC(=O)c1ccc(Nc2nc3ccccc3n3c(C)nnc23)cc1
6 | -9.2 | OCC1OC(n2cnc3cncnc32)C(O)C1O (stereo unspecified)
-20 | . | O=S(=O)(Cc1ccccc1)n1ccnc1
21 | . | O=c1[nH]c2ccc(S(=O)(=O)NCc3ccco3)cc2[nH]1
1 | . | CCCn1c2ccc(Cl)cc2c2nc3ccccc3nc21
17 | -1.1 | Cc1ccc(-n2cnc3ccccc3c2=O)cc1Cl
12 | . | O=C(Cn1ncc2ccc(Cl)cc21)N1CCc2ccccc2C1
4 | . | Cc1noc(C)c1COC(=O)CCc1nc2ccccc2s1
. | 0.1 | CC/C(=N\OC(=O)NS(=O)(=O)c1ccc(C)cc1)c1ccc(-c2ccccc2F)cc1
-1 | -0.5 | CSc1ccc(-c2nc(N)sc2-c2ccccc2)cc1

A draw from above in order of length of the SMILES, smallest number first:
Sa helicase inh | MgrA DNA FP | structure
4 | . | Cc1noc(C)c1COC(=O)CCc1nc2ccccc2s1
12 | . | O=C(Cn1ncc2ccc(Cl)cc21)N1CCc2ccccc2C1
21 | . | O=c1[nH]c2ccc(S(=O)(=O)NCc3ccco3)cc2[nH]1

19 entries from above, set out differently:
Under each structure – Sa helicase inh, MgrA DNA FP
- c1ccc(Cc2nc3c4cnn(Cc5ccccc5)c4ncn3n2)cc1
  0, 0.0
- CCC1(C(=O)c2ccccc2)C(c2ccc(OC)c(OC)c2)C1(C(=O)OC)C(=O)OC (stereo unspecified)
  8, .
- Cc1cc(=O)[nH]c(-n2ncc(C#N)c2N)n1
  -7, .
- C#CC(C)(C)NC(=O)Nc1ccccc1
  ., -1.1
- CCOC(=O)c1cc2nc3sccn3c2s1
  ., -0.1
- O=C1CSC(=S)N1C1CCS(=O)(=O)C1 (stereo unspecified)
  4, 2.8
- COc1ccc(C2CC(c3c(-c4ccccc4)c4cc(Cl)ccc4[nH]c3=O)=NN2C(=O)CCCC(=O)O)cc1OC (stereo unspecified)
  ., 2.3
- COc1cc(CNC(C)(C)C)cc(Cl)c1OCc1cccnc1
  8, -6.2
- CC(C(=O)Nc1ncccn1)(C(F)(F)F)C(F)(F)F
  -17, .
- CCCOC(=O)c1ccc(Nc2nc3ccccc3n3c(C)nnc23)cc1
  10, -0.4
- OCC1OC(n2cnc3cncnc32)C(O)C1O (stereo unspecified)
  6, -9.2
- O=S(=O)(Cc1ccccc1)n1ccnc1
  -20, .
- O=c1[nH]c2ccc(S(=O)(=O)NCc3ccco3)cc2[nH]1
  21, .
- CCCn1c2ccc(Cl)cc2c2nc3ccccc3nc21
  1, .
- Cc1ccc(-n2cnc3ccccc3c2=O)cc1Cl
  17, -1.1
- O=C(Cn1ncc2ccc(Cl)cc21)N1CCc2ccccc2C1
  12, .
- Cc1noc(C)c1COC(=O)CCc1nc2ccccc2s1
  4, .
- CC/C(=N\OC(=O)NS(=O)(=O)c1ccc(C)cc1)c1ccc(-c2ccccc2F)cc1
  ., 0.1
- CSc1ccc(-c2nc(N)sc2-c2ccccc2)cc1
  -1, -0.5

Next part
Sa helicase inh | MgrA DNA FP | structure
8 | . | O=C(/C=C/c1ccccc1)Nc1ccc2sccc2c1
. | -1.3 | COCCN(CCOC)S(=O)(=O)c1ccc(C(=O)Nc2nnc(C34CC5CC(CC(C5)C3)C4)s2)cc1
-6 | . | O=C(COc1ccc(Br)cc1)OCc1nnc(-c2ccccc2)o1
. | -1.4 | COc1ccc(C2CC(c3nc4ccccc4[nH]3)=NN2C(=O)CCCl)cc1 (stereo unspecified)
. | 0.2 | COc1ccc(COC(=O)N/C=C/c2ccccc2)cc1
-4 | . | O=S1(=O)NC(=NC2CC2)c2ccccc21
2 | 5.8 | COC(=O)[n+]1ccc(N2CCOCC2)cc1
4 | . | OCCNc1ncnc2oc(-c3ccccc3)c(-c3ccccc3)c12
1 | 4.9 | COC1=C(N2CCOCC2)C(=O)c2ccccc2C1=O
-15 | . | O=C(N1CCCCC1)N1CCN(C(=O)N(c2ccccc2)c2ccccc2)CC1
11 | 3.8 | CCOC(=O)c1ccc(Cn2nnc3ccccc3c2=O)cc1
-8 | . | O=c1nc2n3ccsc3ncc-2s1
. | 3.0&-0.6 | CCCCC1C(=O)N(c2ccccc2)N(c2ccc(O)cc2)C1=O (stereo unspecified)
6 | 0.2 | CC1CCN(C(=O)C(Cc2ccccc2)NS(=O)(=O)c2ccc3c(c2)c(=O)n(C)c(=O)n3C)CC1 (stereo unspecified)
5 | -1.1 | Cc1cc(C)c(C(=O)CC(N2CCCCC2)C(F)(F)F)c(=O)[nH]1 (stereo unspecified)
-2 | . | COCCn1c(=NC(=O)c2cccc(OC)c2)sc2cc(Br)ccc21
7 | 0.6 | Cc1cccc(N2C(=O)CN(C(C)C)C(=O)C2c2ccc(F)cc2)c1C (stereo unspecified)
17 | . | CN(C)C(=O)C(OC(=O)c1ccc2ccccc2n1)c1ccccc1 (stereo unspecified)
1 | . | Cc1ccc(-c2nnc(SC(C)C(=O)c3ccccc3)o2)cc1 (stereo unspecified)
-8 | -0.3 | Cc1nc2nc3ccccc3nc2n1-c1ccc(F)cc1
9 | . | CCOC(=O)c1nc[nH]c1C(=O)OC
15 | . | CC(C(=O)NCCCN1CCN(C2CCCCC2)CC1)n1ncn2cccc2c1=O (stereo unspecified)
. | -0.8 | Cc1cc(NC(=O)CSCC(=O)O)no1
15 | . | Nc1nc(-c2ccccc2)c(N=Nc2ccc3c(c2)OCO3)s1
17 | . | NS(=O)(=O)c1ccc(Cl)cc1F
9 | . | O=C(NCCCN1CCCC1)C1CCN(c2nc3ccccc3n3cccc23)CC1
. | 0.3 | COC(=O)c1sc(-c2ccc(Cl)cc2)cc1NC(=O)/C=C/C(=O)O
. | -1.3 | O=C(O)c1ccccc1C(=O)N1CCc2c([nH]c3ccccc23)C1C(F)(F)F (stereo unspecified)
16 | 0.8 | O=C(COC(=O)/C=C/c1ccc(F)cc1)Nc1ncc(C(F)(F)F)cc1Cl
. | -1.9 | CSc1cc(C(F)(F)F)cc(SC)c1SC
-2 | . | COc1ccccc1Nc1ncccc1C(=O)Nc1ccnn1C(C)C
32 | . | O=C(CSc1nc2sc3c(c2c(=O)[nH]1)CCCC3)N1CCOCC1
11 | . | CCOC(=O)c1c(CN2CCCCC2)oc2ccc(OC)cc12
-13 | . | Cc1ccccc1NC(=O)COC(=O)c1cccc(S(=O)(=O)N2CCCC2)c1
-4 | -1.6 | O=c1o[nH]c(-c2ccccc2F)c1C=Nc1ccc(Cl)cn1
7 | 1.8 | CN1C(=O)C2N=NN(c3ccccc3)C2C1=O (stereo unspecified)
. | 1.0 | Cc1ccc(NC(=S)N2CCCN(c3ncc(C(F)(F)F)cc3Cl)CC2)c(C)c1
11 | . | CC(C)NC(=O)CSc1c2c(nc3ccccc13)CCCC2
17 | . | O=C(CSc1ncc(S(=O)(=O)c2ccccc2)c(=O)[nH]1)Nc1ccccc1Cl
9&-26 | 0.8 | O=c1[nH]c2ccc(Oc3ccc4[nH]c(=O)c(=O)[nH]c4c3)cc2[nH]c1=O
-3 | . | COC(=O)c1ccccc1NC(=O)Cn1cc(S(=O)(=O)N2CCC(C)CC2)c2ccccc2c1=O
. | 0.2 | CC(=O)c1nnc2cc(C)nn2c1C
. | 0.4 | Cc1csc2sc(C(=O)c3ccc(Cl)cc3)c(C)c12
10 | 0.0 | O=C(NCCc1ccccc1F)C1CC(=O)N(c2ccccc2)C1 (stereo unspecified)
2 | . | O=C(CC(NC1CCCC1)C(=O)O)Nc1ccc(Oc2ccccc2)cc1 (stereo unspecified)
-5 | . | CCc1ccc(C(=O)C(C)Sc2nnc(-c3ccccc3)o2)cc1 (stereo unspecified)
20 | . | CC(C)(C)C(=O)Nc1ccc(-c2nc3ccccc3s2)c(O)c1
1 | . | Cc1ccc2cc(CCNC(=O)C3CC3)c(=O)[nH]c2c1
1 | 1.9 | Cc1noc(/C=C/N(C)C)c1S(=O)(=O)Nc1cccc(Cl)c1
9 | 0.7 | C=CCNc1c(Cl)cc(Cl)cc1C(=O)O

(list continues)
Sa helicase inh | MgrA DNA FP | structure
1 | 0.7 | OC(COCc1ccccc1)C[N+]1(Cc2ccccc2)CCOCC1 (stereo unspecified)
-2 | -1.4 | COc1ccccc1N1CCN(/N=C/c2sccc2C)CC1
2 | -1.7 | CCOc1ccc(NC(=O)CNS(=O)(=O)c2ccc3c(c2)C(C)(C)C(=O)N3C)cc1
3 | -5.9 | O=C1Nc2ccccc2/C1=N\N1C(=O)/C(=C/c2ccccc2)N=C1c1ccccc1
14 | 4.0 | Cc1sc(NC(=O)c2ccccc2F)c(C(=O)c2ccc(Cl)cc2)c1C
-5 | . | CCn1c(Cn2nnc(-c3ccccc3)n2)nc2cc(S(=O)(=O)N(C)C)ccc21
8 | -1.9 | CC(CNC(=O)Cn1ncc2ccccc21)c1ccccc1 (stereo unspecified)
4 | . | CCOc1ccc(-c2ccc(NS(=O)(=O)c3ccccc3)cc2)nn1
-11 | . | C=CCN1C(=O)c2ccccc2N2C(=O)CCC12C(=O)NCc1ccccc1 (stereo unspecified)
14 | 0.6 | O=C(c1ccc(Cl)cc1)c1ccc(S(=O)(=O)c2ccc(Cl)cc2)cc1
13 | 2.1 | CCOC(=O)C1C(=S)NC(N)=C(C#N)C12CCCCC2 (stereo unspecified)
12 | -2.0 | O=S(=O)(/N=C(/Nc1cc(N2CCOCC2)ncn1)c1ccc(F)cc1)c1ccccc1
4 | 0.3 | O=C(OCc1ccc2nonc2c1)c1cc(-c2ccccc2)nc2ccccc12
0 | . | COc1ccccc1CNC(=O)CNC1CCCCC1
-2 | 1.8 | O=S(=O)(NC1CCCC1)c1ccc(Br)cc1
9 | -0.8 | CN(C)S(=O)(=O)c1ccc(-c2n[nH]c(=S)n2-c2ccc(Cl)cc2)cc1
-30 | . | CC(=O)Nc1ccc(S(=O)(=O)NC2=NCN(C3CCN(Cc4ccccc4)CC3)CN2)cc1
-7 | 1.7 | Cc1ccc(CCNC(=O)c2cccn3c(=O)c4c5c(sc4nc23)CCCC5)cc1

Source: PubChem BioAssay (ICCB-Longwood Screening Facility, Harvard Medical School)
